Source: PubChem BioAssay
Polio RdRp inh – poliovirus RdRp elongation inhibitors, primary screen, biochemical, fluorescence polarization, total intensity; Genome polyprotein (Poliovirus type 1 (strain Mahoney)), P03300; poliovirus polymerase elongation; active compounds read low; % elongation, % (compound at 16.7 µg/mL); 150,000 compounds, 0.66% hits; AID 588519, 2011; in the data active = % elongation below about 90%; note: some results filed as inactive read as strong as hits
Target sequence (P03300 1749-2209 limits assumed): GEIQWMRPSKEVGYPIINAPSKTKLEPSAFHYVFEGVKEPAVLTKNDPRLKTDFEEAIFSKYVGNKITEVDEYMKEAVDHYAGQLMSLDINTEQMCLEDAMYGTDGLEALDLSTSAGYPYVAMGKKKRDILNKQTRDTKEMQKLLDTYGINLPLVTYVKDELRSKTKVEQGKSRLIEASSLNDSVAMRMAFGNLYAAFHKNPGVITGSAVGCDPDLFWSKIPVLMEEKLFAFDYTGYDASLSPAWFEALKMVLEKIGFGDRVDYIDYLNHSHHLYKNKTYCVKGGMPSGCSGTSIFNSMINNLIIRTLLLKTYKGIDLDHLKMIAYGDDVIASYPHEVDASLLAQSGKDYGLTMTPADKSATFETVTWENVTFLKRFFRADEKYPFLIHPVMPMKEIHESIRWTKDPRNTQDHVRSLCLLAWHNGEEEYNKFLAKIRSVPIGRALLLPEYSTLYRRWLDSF
Mtb MenB inh – M. tuberculosis MenB inhibitors, primary screen, biochemical, absorbance | MenB enzyme assay, absorbance read-out; some hits fall short of the stated cut | 1,4-dihydroxy-2-naphthoyl-CoA synthase (Mycobacterium tuberculosis (strain ATCC 25618 / … | inhibition, %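 (about 12 µg/mL by stock and volumes)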 | 100,000 compounds, 0.43% hits | AID 540299, 2011;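 active = mean of two replicates above 30%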;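 note: 0% = no compound and 100% = wells with inactive enzyme; the first replicate is given; strong numbers were not always called active; inactives centre near -10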
MbtI inh – MbtI salicylate synthase inhibitors, primary screen, biochemical, fluorescence intensity; P9WFX0; purified MbtI enzyme, fluorescence intensity read-out; inhibition, %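 (about 17 µg/mL by stock and volumes)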; 100,000 compounds, 0.89% hits; AID 493033, 2011;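 active = above 50% in both replicates, above 80% if mildly self-fluorescent; inactive = the rest, strongly fluorescent compounds included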;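 note: 0% = mean of negative and 100% = mean of positive controls; one replicate is shown; some compounds called inactive have numbers as strong as hits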
Target sequence (P9WFX0 whole entry, looked up): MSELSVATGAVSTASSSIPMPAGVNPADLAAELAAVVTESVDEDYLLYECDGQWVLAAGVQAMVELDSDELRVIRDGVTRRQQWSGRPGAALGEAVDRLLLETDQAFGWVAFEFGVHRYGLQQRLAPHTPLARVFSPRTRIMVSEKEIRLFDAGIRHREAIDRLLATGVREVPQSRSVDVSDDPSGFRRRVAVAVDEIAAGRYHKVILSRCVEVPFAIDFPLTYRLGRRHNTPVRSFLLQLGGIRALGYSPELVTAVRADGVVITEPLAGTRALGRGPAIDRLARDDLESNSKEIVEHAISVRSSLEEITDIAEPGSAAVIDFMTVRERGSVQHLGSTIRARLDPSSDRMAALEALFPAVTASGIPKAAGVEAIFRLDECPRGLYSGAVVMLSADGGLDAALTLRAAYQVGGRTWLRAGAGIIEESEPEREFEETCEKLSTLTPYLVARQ
Polio RdRp inh intensity – second read-out of Polio RdRp inh, no call of its own (marks repeat the call); % elongation; measured here: total intensity read-out; formula for this scale not given here;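 total fluorescence in place of polarization; lower means less elongation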
An asterisk follows results filed as active; x = not tested or not shown; & = joins results of further samples.

Labels used below – A = Polio RdRp inh; B = Polio RdRp inh intensity; C = Mtb MenB inh; D = MbtI inh
O=C(NCCN1CCc2ccccc2C1)C1CCN(S(=O)(=O)N2CCCC2)CC1
  A: 100; B: 102; C: -3; D: 156

O=C(Cc1csc2nc(-c3ccccc3)cn12)NC1CCCC1
  A: 102; B: 102; C: -31; D: -13

CCOCN(C(=O)Cn1c(-c2ccco2)nc2ccccc21)c1c(C)cccc1CC
  A: 99; B: 102; C: -1; D: 116

O=S(=O)(c1ccccc1)c1nnn2c1nc(N1CCCCC1)c1sccc12
  A: 104; B: 105; C: -7; D: -3

CC(=O)N1CCC2(CC1)CC(=O)c1cc(OCC(=O)N3CCCC3)ccc1O2
  A: 102; B: 109; C: -1; D: 30

CCN=C1S/C(=C2\C(=O)N(C)c3ccccc32)C(=O)N1CC
  A: 105; B: 100; C: 0; D: 0

CCCC(=O)Nc1nc2ccc(N)cc2s1
  A: 98; B: 99; C: -13; D: 4

COC(=O)COC(=O)c1ccc2[nH]c(=O)c(=O)[nH]c2c1
  A: 102; B: 93; C: -10; D: 109

O=C(CNS(=O)(=O)c1ccccc1)N1CCCC1
  A: 102; B: 102; C: 16; D: -1

CC1CN(c2cc(=O)n(-c3ccc(Cl)cc3)c(=O)[nH]2)CC(C)O1 (stereo unspecified)
  A: 98; B: 106; C: -1; D: 11

COc1ccc(OC)c(C(c2c(O)[nH]c(=S)[nH]c2=O)N2CCN(c3ccccc3)CC2)c1 (stereo unspecified)
  A: 100; B: 103; C: -38; D: 41

CCC(CO)n1c(SCc2cc(=O)oc3cc(C)ccc23)nc2ccccc2c1=O (stereo unspecified)
  A: 100; B: 104; C: -23; D: 15

FC(F)(F)c1ccc(Cl)c(Nc2ncnc(-n3cccc3)n2)c1
  A: 105; B: 114; C: -18; D: -5

CCOC(=O)CNC1=NCc2ccccc21
  A: 100; B: 104; C: x; D: -9

CN(C)C(=O)c1nn(-c2ccc(Cl)cc2)c(=O)c2ccccc12
  A: 103; B: 96; C: 9; D: 7

O=C(O)Cc1ccc2c(c1)OCO2
  A: 100; B: 101; C: 4; D: 3

Cc1ccc(-n2c(COc3cccc(C)c3)n[nH]c2=S)cc1
  A: 101; B: 101; C: -12; D: 28

CC1=C(C(=O)Nc2ccccn2)C(c2ccsc2)C2=C(CC(c3ccco3)CC2=O)N1 (stereo unspecified)
  A: 101; B: 102; C: -31; D: 90

O=C(NCC(O)c1ccccc1)Nc1ccc(F)cc1 (stereo unspecified)
  A: 99; B: 94; C: 1; D: 1

Cc1ccc(C(=O)Sc2nnc3ccccn23)cc1
  A: 101; B: 99; C: x; D: 60

O=C(COCC(=O)Nc1ccc(Cl)cc1F)Nc1ccc(Cl)cc1F
  A: 102; B: 105; C: x; D: -3

COc1ccc(N=Cc2cn(-c3ccccc3)nc2-c2cccs2)cc1
  A: 102; B: 96; C: x; D: -3

CCOC(=O)Cc1nc(-c2ccncc2)n[nH]1
  A: x; B: x; C: -8; D: -6

CC1(C)CC(C(N)=O)C(C)(C)N1 (stereo unspecified)
  A: 101; B: 99; C: -4; D: -11

CC(C)OC(=O)CC12CN3CC(CC(=O)OC(C)C)(CN(C1)C(=O)c1ccccc1C3=O)C2=O
  A: 103; B: 99; C: -3; D: -9

CC(=O)N1N=C(c2ccccc2)OC1c1cccnc1 (stereo unspecified)
  A: 103; B: 107; C: -18; D: 2

Cn1cnnc1SC(C(=O)Nc1cc(Cl)cc(Cl)c1)c1ccccc1 (stereo unspecified)
  A: 104; B: 108; C: x; D: -2

CCOC(=O)c1sc2nc(NC(=O)C3CC3)sc2c1C
  A: 99; B: 100; C: -11; D: 34

COc1ccc2c(c1)-c1nc(NC(=O)c3ccccc3Br)sc1CC2
  A: 103; B: 106; C: -23; D: -4

CCOC(=O)c1c(CN2CCOCC2)n(-c2ccccc2)c2ccc(O)cc12
  A: 98; B: 86; C: 2; D: x

O=C(Nc1ccc(Cl)cc1)c1cnc(N2CCCC2)nc1
  A: 102; B: 105; C: -19; D: -73

CC(OC(=O)c1cc2sccc2n1C)C(=O)NCC1CCCO1 (stereo unspecified)
  A: 102; B: 102; C: -26; D: 1

O=C(Oc1ccc(Cl)cc1)c1cccs1
  A: 100; B: 102; C: 3; D: 0

O=C1CCCCC1OC(=O)C12CC3CC(CC(C3)C1)C2 (stereo unspecified)
  A: 101; B: 106; C: x; D: -11

CN1CCC(N(C)C(=O)/C=C/c2cn(-c3ccccc3)nc2-c2cccnc2)CC1
  A: 97; B: 107; C: -29; D: 2

CN1CCc2c(Nc3ccc(Cl)cc3)nc3[nH]n(-c4ccccc4)c(=O)c3c21
  A: 103; B: 109; C: -76; D: -184

O=C(CSc1nnc(-c2ccccc2)o1)Oc1ccc(Br)cc1
  A: 102; B: 98; C: -19; D: 1

CCOc1ccc(-c2noc(CCCC(N)=O)n2)cc1OC
  A: 100; B: 102; C: 6; D: 14

Cc1nc2c(-c3ccccc3)c(C)nn2c(C)c1CC(=O)NN1CCOCC1
  A: 102; B: 101; C: -22; D: -5

Cc1cc(NCCN(C)C)c2ccccc2n1
  A: 92; B: 114; C: -25; D: 5

CNC(=O)CNC(=O)c1ccccc1
  A: 96; B: 96; C: -11; D: 8

O=C(NC(=O)c1ccccc1Cl)Nc1ccc2c(c1)S(=O)(=O)C=C2
  A: 107; B: 111; C: -5; D: -3

O=C(CNC(=O)OCc1ccccc1)ON1C(=O)CCC1=O
  A: 105; B: 106; C: -12; D: -7

COc1ccc(C(=O)c2ccccc2)cc1
  A: 101; B: 99; C: 16; D: 10

O=C(CSc1nnc(-c2cccnc2)o1)OC1CCCCC1
  A: 101; B: 103; C: -10; D: -1

Cc1c(C#N)c(NC(=O)CN(C)CC(=O)Nc2ccc(F)c(F)c2F)n(Cc2ccco2)c1C
  A: 105; B: 104; C: -15; D: -6

O=C(NCc1ccco1)c1scc2c1OCCO2
  A: 106; B: 107; C: -15; D: x

O=C(CSc1nc(-c2cccs2)cc(C(F)(F)F)n1)NCc1ccncc1
  A: 102; B: 101; C: -7; D: 108

COc1cccc(/C=N/NC(=O)Cc2ccccc2)c1
  A: 104; B: 103; C: -27; D: -2

Cc1cccc(Cn2c(CCNC(=O)C(C)(C)C)nc3ccccc32)c1
  A: 101; B: 98; C: -22; D: -10

(further entries)
Labels used below – A = Polio RdRp inh; B = Polio RdRp inh intensity; C = Mtb MenB inh; D = MbtI inh
S=C(NCc1ccccc1)NCC(c1cccnc1)N1CCOCC1 (stereo unspecified)
  A: 101; B: 100; C: -33; D: -1

Cc1ccc(C(C)C)c(OCC(=O)Nc2cc(-c3nc4ncccc4o3)ccc2Cl)c1
  A: 100; B: 97; C: -8; D: -3

Cc1ccc(C(=O)C(OC(=O)c2c(C)cc(=O)oc2C)c2ccccc2)cc1 (stereo unspecified)
  A: 100; B: 100; C: -30; D: -92

CC(C(=O)NCc1ccco1)N1CCN(C)CC1 (stereo unspecified)
  A: 98; B: 100; C: -20; D: -2

CN(C)S(=O)(=O)c1cccc(C(=O)OCC(=O)NC2CC2)c1
  A: 103; B: 103; C: -3; D: 16

CCC(CO)NC(=S)Nc1ccccc1C (stereo unspecified)
  A: 108; B: 111; C: -8; D: x

COc1ccccc1CNC(=O)COC(=O)Cc1ccc(Br)cc1
  A: 102; B: 108; C: x; D: -7

CC(Sc1nc(-c2ccccc2)cc(C(F)(F)F)n1)C(=O)NN1CCCCC1 (stereo unspecified)
  A: 103; B: 104; C: -39; D: -11

CCC(Sc1nc2sc(C(=O)OC)c(C)c2c(=O)n1N)C(=O)N(CC)CC (stereo unspecified)
  A: 102; B: 102; C: -5; D: 127

CNC(C)c1ccc(OC)c(OC)c1 (stereo unspecified)
  A: 99; B: 103; C: -28; D: -19

C=CCc1cccc(/C=C(/C#N)C(N)=O)c1O
  A: 102; B: 105; C: -15; D: -52

Clc1cc2nsnc2cc1Cl
  A: 101; B: 104; C: -3; D: 9

N/C(=N/c1nc(CSc2ccc(Cl)cc2)cc(=O)[nH]1)Nc1ccc(F)cc1
  A: 99; B: 100; C: -32; D: 3

O=C(NCCc1ccccc1)[C@@H](c1ccccc1)N1Cc2ccccc2C1=O
  A: 97; B: 98; C: -20; D: -6

COC(=O)CC1=C(C(=O)OC)C2(C(=O)Nc3ccccc32)C(C#N)=C(N)O1 (stereo unspecified)
  A: 106; B: 108; C: -11; D: x

COC(=O)c1ccccc1NC(=O)c1c(Cl)nc2sccn12
  A: 102; B: 106; C: -20; D: 11

COC(=O)CCn1nc(-c2ccc(C)cc2)c2ccccc2c1=O
  A: 103; B: 108; C: -9; D: -61

Nc1ccn([C@H]2CC[C@@H](CO)O2)c(=O)n1
  A: 106&100; B: 111&102; C: -2&3; D: -8

O=C(CCCn1c(=O)oc2ccccc21)N1CCN(S(=O)(=O)c2ccc3c(c2)CCC3)CC1
  A: 105; B: 109; C: -28; D: -10

CCSC1=C(C#N)C(=O)NC(CO)S1 (stereo unspecified)
  A: 107; B: 102; C: 5; D: 14

CN(C(=O)c1ccc(Br)cc1)C1CCCCC1
  A: 99; B: 101; C: 17; D: 7

CCCc1nc(SCC(=O)N(CC)CC)c2ccccc2n1
  A: 102; B: 101; C: 15; D: -3

CCCNC(=O)c1cc(Cl)c2c(c1)OCO2
  A: 100; B: 104; C: -17; D: -6

COc1ccc(CCC(=O)Nc2ccc3nc(N4CCN(c5ncccn5)CC4)cc(C)c3c2)cc1
  A: 100; B: 103; C: -17; D: -11

NC(=S)Nc1cccc(C(F)(F)F)c1
  A: 101; B: 102; C: -15; D: 1

Cc1ccc2c(ccn3cc4c(c(=O)n(C)c(=O)n4C)c23)c1
  A: 103; B: 100; C: -2; D: -7

O=C(O)CCSc1nnc(-c2ccncc2)n1-c1ccccc1
  A: 102; B: 101; C: -17; D: 3

CCOC(=O)Cn1c(=NC(=O)CN2C(=O)CCC2=O)sc2cc(S(N)(=O)=O)ccc21
  A: 105; B: 105; C: -5; D: 9

O=C(/C=C/c1nc2ccccc2o1)N1CCN(Cc2nc3ccccc3s2)CC1
  A: 104; B: 117; C: -26; D: 17

CCN1CCN(C(=O)c2cccc(OC(F)F)c2)CC1
  A: 107; B: 103; C: -32; D: -5

Four of these compounds, reformatted.
COC(=O)CCn1nc(-c2ccc(C)cc2)c2ccccc2c1=O
  Polio RdRp inh: 103
  Polio RdRp inh intensity: 108
  Mtb MenB inh: -9
  MbtI inh: -61

Nc1ccn([C@H]2CC[C@@H](CO)O2)c(=O)n1
  Polio RdRp inh: 106&100
  Polio RdRp inh intensity: 111&102
  Mtb MenB inh: -2&3
  MbtI inh: -8

O=C(CCCn1c(=O)oc2ccccc21)N1CCN(S(=O)(=O)c2ccc3c(c2)CCC3)CC1
  Polio RdRp inh: 105
  Polio RdRp inh intensity: 109
  Mtb MenB inh: -28
  MbtI inh: -10

CCSC1=C(C#N)C(=O)NC(CO)S1 (stereo unspecified)
  Polio RdRp inh: 107
  Polio RdRp inh intensity: 102
  Mtb MenB inh: 5
  MbtI inh: 14

The list goes on.
Labels used below – A = Polio RdRp inh; B = Polio RdRp inh intensity; C = Mtb MenB inh; D = MbtI inh
CSc1nc2[nH]c(=O)cc(O)c2s1
  A: 102; B: 107; C: -113; D: -3

C=CCn1c(NS(=O)(=O)c2ccccc2)c(C#N)c2nc3ccccc3nc21
  A: 201; B: 169; C: -54; D: 3

CNc1ccccc1C(C)(C)c1[nH]ncc1-c1ccc(F)cc1
  A: 103; B: 102; C: x; D: -27

CC(NC(=O)c1ccc(C(C)(C)C)cc1)c1ccccc1 (stereo unspecified)
  A: 104; B: 94; C: 5; D: x

Cc1ccc(C=N/C(=N\NC(=O)c2ccccc2)c2ccccc2)o1
  A: 100; B: 102; C: 0; D: 34

CCOc1ccc(NC(=S)NCCCO)cc1
  A: 99; B: 99; C: -16; D: 4

O=C(Cn1ncc(Cl)c(Cl)c1=O)NCC1CCCO1 (stereo unspecified)
  A: 93; B: 91; C: -6; D: 9

CC(C)(C)c1nnc(N)s1
  A: 100; B: 104; C: x; D: 1

COc1cccc(/C=C2\N=C(c3c(-c4ccccc4)noc3C)OC2=O)c1
  A: 101; B: 101; C: 0; D: -2

COCCn1c(CCC(=O)NCc2ccc(C)cc2)nc2cccnc21
  A: 103; B: 102; C: 6; D: -6

Cn1c(=O)c2sccc2n2c(CCCC(=O)N3CCCCC3)nnc12
  A: 98; B: 98; C: -15; D: 0

c1ccc(CNc2ccc(N3CCCCC3)nn2)cc1
  A: 102; B: 103; C: 3; D: 0

CC(C)N(Cc1nnc(-c2ccccc2Cl)o1)C(=O)C1=CC=CN2CCS(=O)(=O)N=C12
  A: 103; B: 104; C: 7; D: 103

CC(C(=O)Nc1ccccc1)n1nc(-c2ccccc2)ccc1=O (stereo unspecified)
  A: 100; B: 101; C: 3; D: -14

CCCn1c(C)cc(C(=O)COC(=O)c2ccc(C#N)cc2)c1C
  A: 103; B: 97; C: -10; D: -6

CC(Sc1nc2ncccc2[nH]1)C(=O)Nc1ccc(F)cc1 (stereo unspecified)
  A: 101; B: 103; C: 6; D: 7

NC(=O)CN1CCC(N2CCCCC2)CC1
  A: 100; B: 101; C: 27; D: -4

O=C(c1ccco1)N1CCN(c2c3c(nc4cc(-c5cccc(F)c5)nn24)CCCC3)CC1
  A: 99; B: 101; C: -2; D: 89

Cc1cc(=O)[nH]c2sc(C(=O)N3c4ccccc4CC3C)c(N)c12 (stereo unspecified)
  A: 104; B: 107; C: x; D: -5

N#Cc1nc(-c2ccccc2F)oc1NC1CC1
  A: 104; B: 101; C: -23; D: -372
